RE007 growth inh – less growth of the S. pombe RE007 Vpr strain; Potency, µM (doses to about 92.2 µM), without a hit: at the top dose activity change, negative = less growth; 360,000 compounds, 0.21% hits; S. pombe RE007 Vpr strain, BacTiter-Glo ATP luminescence, 24 h; control for the full effect not named in the record; active = well fitted falling curve with a large enough effect; inconclusive = small, poorly fitted or top-dose-only effect; inactive = no such curve, though single readings can be large or run the other way;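 also: % is scaled to controls: 0 for no effect and ±100 for the full control effect; nearly all actives have a fitted effect of over 50% in size; the assay follows cell death caused by Vpr and the record does not say whether a fall means rescue or toxicity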
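Fission yeast RE007 carrying one integrated HIV-1 vpr copy, seeded at OD 0.01 in PMG+AL medium with 23 nL pinned compound. Grown 24 h at 30 degrees; viability read by BacTiter-Glo luminescence after 5 min.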
SARS PLpro yeast – inhibitors of SARS-CoV papain-like protease in yeast. S. cerevisiae expressing SARS-CoV PLpro, growth rescue; control for the full effect not named in the record. AID 485353. 330,000 compounds, 0.19% hits. Potency, µM (top dose mostly 32.9 µM), for inactives: at the highest dose activity, positive = growth rescue; active means well fitted rising curve with a large enough effect; inconclusive means small, poorly fitted or top-dose-only effect; inactive means no such curve, though single readings can be large or run the other way; also: 0% is about no effect; nearly all actives have a fitted effect of over 55% in size; growth read by luminescence after 48 h
Cruzain inh noDet – blocks cruzain activity in detergent-free assay. purified cruzain, Z-FR-AMC fluorescence, no detergent. Potency, µM, for inactives: max response, negative = inhibition, most hits filed as inhibitors. P25779. 200,000 compounds, 2.3% hits;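 also: plate controls were enzyme without inhibitor for no effect and buffer without enzyme for full effect; nearly all actives have a fitted effect of over 40% in size; top concentration of the series not given in the record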
Target sequence (P25779 123-467 limits assumed): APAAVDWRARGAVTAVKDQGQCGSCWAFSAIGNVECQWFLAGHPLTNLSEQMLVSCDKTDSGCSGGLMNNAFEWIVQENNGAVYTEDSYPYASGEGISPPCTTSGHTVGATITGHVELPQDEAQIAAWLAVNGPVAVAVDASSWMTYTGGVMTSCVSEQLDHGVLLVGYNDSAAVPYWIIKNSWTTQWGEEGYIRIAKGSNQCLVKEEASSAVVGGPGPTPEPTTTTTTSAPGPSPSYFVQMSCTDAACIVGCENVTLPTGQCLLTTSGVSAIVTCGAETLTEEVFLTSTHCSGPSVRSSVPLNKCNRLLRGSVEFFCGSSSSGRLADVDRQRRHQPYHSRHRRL
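Purified cruzain at 1.5 nM, pre-incubated 15 min with compound at room temperature in 100 mM sodium acetate pH 5.5, 5 mM DTT, 0.00005% Triton X-100. Reaction started with 2 uM Z-FR-AMC; AMC fluorescence increase over 60 s gives rate.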
2A StopGo – lowers the luciferase signal of an FMDV 2A StopGo reporter | Potency, µM (top dose mostly 57.9 µM), for inactives: at the highest dose signal change, negative = less light | 410,000 compounds, 1.2% hits | human cells with a luciferase reporter of 2A StopGo recoding; control for the full effect not named in the record | AID 1159524; active = well fitted falling curve with a large enough effect; inconclusive = small, poorly fitted or top-dose-only effect; inactive = no such curve, though single readings can be large or run the other way; tested in HEK293T cells; also: % is scaled to controls: 0 for no effect and ±100 for the full control effect; nearly all actives have a fitted effect of over 45% in size; luciferase light after 4 h
MARV entry inh – inhibitors of Marburg virus binding or cell entry; Marburg virus pseudotyped entry inhibition, cell reporter; control for the full effect not named in the record; about a third of the inactives were read at about 46 µM; 300,000 compounds, 1.8% hits; Potency, µM (doses to about 37.8 µM), for inactives: at the highest dose activity change, negative = inhibition, most hits filed as inhibitors; active = well fitted inhibition curve with a large enough effect; inconclusive = small, poorly fitted or top-dose-only effect, or effect the other way; inactive = flat fitted curve, though single readings scatter; tested in HEK293 cells; about a fifth of its hits are not listed in these tables; also: % is scaled to controls: 0 for no effect and ±100 for the full control effect; luciferase read-out
Cruzain inh Det – inhibitors of Trypanosoma cruzi cruzain with detergent. purified cruzain, Z-FR-AMC fluorescence, 0.01% Triton. P25779. Potency, µM, without a hit: max response, negative = inhibition, hits mostly inhibitors. 200,000 compounds, 0.43% hits;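 also: plate controls were neutral wells for no effect and buffer without enzyme for full effect; nearly all actives have a fitted effect of over 40% in size; top concentration of the series not given in the record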
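Sodium acetate buffer (100 mM, pH 5.5) containing 5 mM DTT and 0.01% Triton X-100 hosted 1.5 nM cruzain and test compound for 15 min at room temperature. Cleavage of 2 uM Z-FR-AMC was then tracked by fluorescence.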
NS1 inh – influenza NS1 inhibition | S. cerevisiae slowed by influenza A NS1, growth recovery by OD600 | Potency, µM (doses to about 46.1 µM), for the others: at the highest dose activity, positive = more growth | 270,000 compounds, 0.4% hits | AID 2326; active means well fitted rising curve with a large enough effect; inconclusive means small, poorly fitted or top-dose-only effect; inactive means no such curve, though single readings can be large or run the other way; also: nearly all actives have a fitted effect of over 50% in size
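A cell-based growth assay was used: compounds that relieve NS1-induced slow growth of budding yeast raise OD600. Assay medium was yeast nitrogen base with ammonium sulphate and -URA supplement, pH 6.0, with 2% galactose.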
LASV entry inh – blocks Lassa virus binding to or entry into cells | Lassa virus pseudotype entry inhibition, cell reporter; control for the full effect not named in the record | Potency, µM (titrated, usually from 37.9 µM), for inactives: at the highest dose activity change, negative = inhibition, most hits filed as inhibitors | 300,000 compounds, 1.2% hits | AID 540256; active means well fitted inhibition curve with a large enough effect; inconclusive means small, poorly fitted or top-dose-only effect, or effect the other way; inactive means flat fitted curve, though single readings scatter; tested in HEK293 cells; also: % is scaled to controls: 0 for no effect and ±100 for the full control effect; nearly all actives have a fitted effect of over 50% in size; luciferase read-out
Numbers without * were called inactive; ? = inconclusive; / = no result given; & = joins results of further samples; [ ] = another dose, or the depositor's remark. Unless noted, calls follow the shape of the dose curve; as a rule, active = well fitted curve in the direction sought with a large enough effect; inconclusive = small, poorly fitted or top-dose-only effect, or another doubt; inactive = no such curve, though single readings can be large; an effect the other way counts as inactive or inconclusive. Potency is read from the fitted curve at half-maximal effect. Outcome played no part in choosing rows; overall some 4.7% were active at least once.

SMILES	RE007 growth inh	SARS PLpro yeast	Cruzain inh noDet	2A StopGo	MARV entry inh	Cruzain inh Det	NS1 inh	LASV entry inh
Cc1c(C(=O)N2CCCCC2)oc2ccc(S(=O)(=O)N3CC(C)CC(C)C3)cc12 (stereo unspecified)	4%	1%	?	?	11µM*	-1.0%	-35%	?
Cc1ccccc1NC(=O)C12CC3CCC1(C)C3(C)CO2 (stereo unspecified)	6%	-4%	/	-8%	?	/	/	1%
O=C(c1ccc2c(c1)N(Cc1ccccc1F)C(=O)c1ccccc1S2=O)N1CCN(c2ccccc2)CC1 (stereo unspecified)	/	/	-1%	?	?	-0.4%	/	?
C(=C\c1nc2ccccc2[nH]1)/c1ccccc1	32µM*	-34%	20µM*	16µM*	?	-21%	-109%	?
CCn1nnnc1SCC(=O)N1CCN(c2ccccc2)CC1	-2%	4%	/	-11%	/	/	1%	/
CCCOc1cccc(C2C(C(=O)c3cccs3)=C(O)C(=O)N2Cc2cccnc2)c1 (stereo unspecified)	5%	0%	/	34%[activator]	?	/	13%	?
CC(C)[C@H](NC(=O)c1ccccc1)C(=O)OCC(=O)NCc1ccc(F)cc1	7%	0%	/	-19%	1%[46.1 µM]	/	3%	?
COc1ccc(-c2oc(=O)c3cc(OC)c(OC)cc3c2-c2cc(F)cc(OC)c2)cc1	-3%	-27%	/	-10%	-3%	/	/	/
CSc1ccc(CCNC(=O)C(C)n2nc(C)c3c(C)n(-c4ccccc4)nc3c2=O)cc1 (stereo unspecified)	/	/	-12%	?	/	-6.2%	/	-8%[46.1 µM]
Cc1ccc(NC(=O)C2CCCN(S(=O)(=O)c3cccc4nsnc34)C2)cc1C (stereo unspecified)	/	/	-7%	?	-20%[46.1 µM]	-1.8%	/	10%[46.1 µM]
Cc1ccc(NC(=O)Cn2c(=O)n(CCC(C)C)c(=O)c3cccnc32)cc1C	/	/	-8%	-17%	9%[46.1 µM]	0.4%	/	/
CCOc1ccccc1N1CCN(C(=O)CC(C)(C)C)CC1	15%	0%	/	8%	?	/	-6%	2%[46.1 µM]
O=C(Cc1ccccc1)Nc1ccc(NC(=O)c2cccc(Cl)c2)cc1	-5%	-9%	25µM*	-13%	?	0.5%	0%	?
NC(=O)C(c1cccc(Cl)c1)c1ncc(C(F)(F)F)cc1Cl (stereo unspecified)	12%	-3%	7%	0%	5%	1.2%	16%	0%
COc1cc2[nH]c(=O)n(Cc3ccc(C(=O)NC4CCCC4)cc3)c(=O)c2cc1OC	-12%	-4%	-7%	-14%	-11%[46.1 µM]	9.5%	10%	-15%
CC(C)(C)NC(=O)COc1ccc(CNCc2cccnc2)cc1	-23%	-1%	/	13%	-1%[46.1 µM]	/	-1%	/
N#CCSc1nc2cc(C(=O)N3CCC(C(N)=O)CC3)ccc2c2nc3ccccc3n12	-1%	-9%	?	27%	7%	-1.2%	-1%	10%
CCCN(CC1CC1)C(=O)COC(=O)c1ccc(C)cc1O	-1%	-5%	/	45%[activator]	-17%	/	/	6%
Cc1ccc2[nH]c3c(c2c1)CN(C(=O)CN1CCN(Cc2ccc4c(c2)OCO4)CC1)CC3	10%	0%	14%	-8%	?	12%	-2%	-27%
COc1cccc(/C=C/c2nc(C#N)c(NCCN(C)C)o2)c1	/	/	20µM*	0%	-28%[46.1 µM]	25µM*	/	22%[46.1 µM]
CCOc1ccccc1-n1c(SCC(=O)N2CCCC2)nnc1-c1ccc(O)cc1	-21%	/	20%	/	28%	-3.4%	-13%	?
COc1nc(-c2ccc(Cl)cc2)ccc1-c1noc(-c2ccco2)n1	-9%	-8%	-8%	16%	1%	2.2%	1%	6%
CCOC(=O)c1nn(-c2ccc(C)c(Cl)c2)c(=O)c(C#N)c1C	-2%	0%	/	-10%	2%[46.1 µM]	/	3%	12%[46.1 µM]
CC1CCCN(S(=O)(=O)c2ccc(C(=O)Nc3nnc(-c4ccco4)o3)cc2)C1 (stereo unspecified)	-11%	1%	/	-15%	?	/	-9%	?
O=C(CSc1ncnc2ccccc12)Nc1cc(S(=O)(=O)N2CCCCC2)ccc1Cl	-4%	-1%	?	?	?	-2.1%	12%	?

Next part
SMILES	RE007 growth inh	SARS PLpro yeast	Cruzain inh noDet	2A StopGo	MARV entry inh	Cruzain inh Det	NS1 inh	LASV entry inh
COc1ccccc1NC(=O)/C(C#N)=C/c1ccncc1	-7%	-3%	/	-19%	/	/	-7%	/
O=C(NCc1cccc(Br)c1)c1ccc(-n2cnc3cccnc32)cc1	/	/	10%	-1%	/	-5.7%	/	?
C=C(C(=O)c1ccccc1)C(C)C(=C)C(=O)c1ccccc1	20%	-31%	-10%	?	7.9µM*	-6.4%	-14%	18µM*
COc1ccc(S(=O)(=O)Nc2ccccc2C(=O)NC(C)(C)C)cc1OC	5%	12%	12%	22%	-3%	4.0%	13%	8%
COc1cccc(NC(=O)Cn2nnc(C(=O)Nc3cc(Cl)ccc3OC)c2N)c1	11%	-5%	/	8%	/	/	0%	/
COc1ccc(Br)cc1CN(C)C(=O)C1=CC=CN2CCS(=O)(=O)N=C12	-16%	-18%	/	-3%	12%	/	/	-20%
CCc1ccc(CN(C(=O)c2nc(SC)ncc2Cl)C2CCS(=O)(=O)C2)cc1 (stereo unspecified)	/	/	-2%	-1%	0%[46.1 µM]	-5.9%	/	-2%[46.1 µM]
Cc1ccc2nc(-c3ccccc3)cc(C(=O)NCC3CCCO3)c2c1 (stereo unspecified)	-12%	0%	/	19%	?	/	-12%	-6%
O=C(Nc1ccccc1)c1cnc2n(c1=O)CCS2	-4%	-5%	0%	40%[activator]	1%	-4.1%	-30%	-1%
CCN(CC(=O)Nc1ccc(NC(C)=O)cc1)C(=O)COc1ccc(C(=O)c2ccccc2)cc1	15%	?	21%	?	22%	-4.8%	-18%	7%
COc1cc(-c2nnc3n(CCc4ccccc4)c(=O)c4ccccc4n23)cc(OC)c1OC	8%	-4%	?	?	14%	-1.4%	22%	0%
N#Cc1ccc(Cl)cc1NC(=O)CSc1cccc[n+]1[O-]	14%	/	/	2%	2%	/	/	17%
COc1ccccc1NC(=O)CCNS(=O)(=O)c1ccc2c(c1)CCCC(=O)N2	/	/	8%	-17%	/	1.1%	/	1%[46.1 µM]
Nn1c(SCC(=O)Nc2nccs2)nncc1=O	0%	1%	/	-27%	6%	/	9%	-19%
Cc1cc(C)n(-c2cc(-c3ccccc3)nc(C)n2)n1	-6%	-1%	3%	?	-6%	-2.6%	-6%	8%
COc1ccc(-c2noc(CSc3nnc(-c4ccncc4)n3-c3ccc(F)cc3)n2)cc1OC	-7%	-6%	?	/	?	-7.9%	-8%	-4%
C=C(C)C1CC=C(CN2CC(C)OC(C)C2)CC1 (stereo unspecified)	14%	-8%	-8%	-2%	-1%	7.8%	-10%	-2%
O=C(NC1=NCCS1)c1ccc(Cl)s1	17%	-8%	-6%	0%	?	-1.2%	-20%	46%[14.3 µM]
CNc1nc(SC)nc(N(C#N)CC(=O)OC)n1	-16%	9%	25µM*	3%	?	18µM*	6%	-16%
Cc1cccc(C(=O)/C=C2/c3ccccc3CC(C)(C)N2C)c1	20%	22%	12%	-9%	-8%	-4.4%	-13%	-11%
COc1ccccc1CNC(=O)CCCC(=O)n1ncc2cc(C)ccc21	-1%	-6%	/	-17%	/	/	-6%	/
O=c1c2ccccc2cnn1-c1ccc(Cl)cc1	-4%	2%	-2%	-23%	?	1.1%	-6%	?
CN(C)C(=O)c1sccc1Oc1ccc(F)cc1[N+](=O)[O-]	8%	0%	/	-3%	13%[46.1 µM]	/	/	-5%
COc1ccc(NC(=O)CN2C(=O)CC(c3ccco3)Sc3ccccc32)cc1OC (stereo unspecified)	/	/	?	-27%	9%[46.1 µM]	-7.8%	/	/
Cc1cc2c(NC(=O)Nc3ccc(F)cc3)cccc2nn1	-24%	0%	/	5%	-9%[46.1 µM]	/	-5%	1%[46.1 µM]

Next structures:
SMILES	RE007 growth inh	SARS PLpro yeast	Cruzain inh noDet	2A StopGo	MARV entry inh	Cruzain inh Det	NS1 inh	LASV entry inh
Cc1occc1C(=O)Nc1sc2c(c1C(N)=O)CCCCC2	5%	-15%	-12%	14%	?	-4.5%	-37%	?
Cc1ccc(N2C(=NC(=O)c3ccccc3)SC3CS(=O)(=O)CC32)cc1 (stereo unspecified)	8%	-1%	/	-21%	26%[46.1 µM]	/	14%	?
COc1ccc2nc(N3C(=O)CC(Cc4ccc(Cl)cc4)C3=O)sc2c1 (stereo unspecified)	7%	10%	?	/	0%	-7.3%	17%	10%
COc1ccc(C2CC(=O)c3cnc(NC(=O)c4ccccc4)nc3C2)c(OC)c1 (stereo unspecified)	1%	1%	1%	-8%	?	1.5%	-44%	?
COc1cc(C(=O)O)c2ccccc2n1	0%	-1%	/	4%	15%	/	5%	-4%
Nc1c(C(=O)Nc2cccc(F)c2)nnn1-c1cccc(C(F)(F)F)c1	2%	1%	7%	2%&29%	15%&15%[46.1 µM]	1.5%	/	16%
Cc1ccc(S(=O)(=O)/N=C(/Sc2ccccc2C(=O)O)c2ccccc2)cc1	9%	3%	/	-19%	/	/	15%	/
CCN(CC)c1ccc(C2C(C(N)=O)=C(C)Nc3nc(SCc4ccccc4)nn32)cc1 (stereo unspecified)	/	/	?	?	-28%[46.1 µM]	-1.0%	/	?
Cc1ccccc1C(=O)N1CC(=O)Nc2ccc(Cl)cc2C1c1ccccc1 (stereo unspecified)	/	/	-4%	-5%	-24%[46.1 µM]	-3.9%	/	-27%[46.1 µM]
COc1ccccc1OCC(=O)NCC(c1cccs1)N1CCOCC1 (stereo unspecified)	4%	0%	/	-17%	27%	/	3%	-1%
CCN(CCn1cccn1)C(=O)C1CCC(=O)N(CCc2cccc(F)c2)C1 (stereo unspecified)	?	-1%	/	-5%	22%	/	11%	-17%
